Yeast UUG start – yeast start codon fidelity modulation | S. cerevisiae UUG-firefly luciferase reporter, luminescence/redox ratio | activity score, % at 18.7 µM | 0.13% of 350,000 active | AID 602363;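 active = replicate mean at a twofold rise or more, about +100% in these data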;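 note: firefly luciferase made from a UUG start codon reports start codon fidelity; reporter light over untreated wells divided by growth signal over untreated wells; some hits fall short of that in this replicate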
HIV Env fusion – blocks HIV Env-driven cell-cell fusion. HeLa-JRFL Env/CEM21 cell fusion, luciferase. 1.1% of 360,000 active. AID 651610. inhibition, % at 12.3 µM;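 active = mean replicate inhibition score of at least 50 and every replicate individually at or above 50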;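 note: 0% = plate neutral controls and 100% = maraviroc near 300 nM; one replicate is shown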
MT1-MMP act inh – inhibitors of human MT1-MMP activation; GFP/RFP ratio change, % at 20 µM; AID 651647; P50281; HT1080 RFP-PRO-GFP cells, GFP/RFP ratio fluorescence, overnight; percent of plate control window, DMSO zero; 0.061% of 360,000 active;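 active = GFP/RFP ratio change of at least 30% with cell ATP level not reduced by more than half and red fluorescence within 50% of control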; note: strong numbers were not always called active
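system = RFP-PRO-GFP reporter HT1080 cells | dosing = 20 µM single dose, 1% DMSO | timing = overnight cell settling, then overnight compound exposure, 37 °C, 5% CO2 | read-out basis = GFP/RFP fluorescence ratio | controls = DMSO and RFP-L50D-GFP cell wells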
PABP polyA inh – PABP-poly(A) binding inhibition | P11940 | 1% of 290,000 active | PABP-poly(A) RNA binding, fluorescence polarization | AID 2014 | inhibition, % at 35 µM;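 active = 50% or more with normal probe brightness, or confirmed in later tests; about a fifth of its hits are not listed in these tables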;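 note: calls also rest on retests at 20 µM and on dose response follow-up; controls were probe without protein and protein plus probe with vehicle; some compounds called inactive have numbers as strong as hits; many hits fall short of the cut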
Target sequence (P11940 whole entry, looked up): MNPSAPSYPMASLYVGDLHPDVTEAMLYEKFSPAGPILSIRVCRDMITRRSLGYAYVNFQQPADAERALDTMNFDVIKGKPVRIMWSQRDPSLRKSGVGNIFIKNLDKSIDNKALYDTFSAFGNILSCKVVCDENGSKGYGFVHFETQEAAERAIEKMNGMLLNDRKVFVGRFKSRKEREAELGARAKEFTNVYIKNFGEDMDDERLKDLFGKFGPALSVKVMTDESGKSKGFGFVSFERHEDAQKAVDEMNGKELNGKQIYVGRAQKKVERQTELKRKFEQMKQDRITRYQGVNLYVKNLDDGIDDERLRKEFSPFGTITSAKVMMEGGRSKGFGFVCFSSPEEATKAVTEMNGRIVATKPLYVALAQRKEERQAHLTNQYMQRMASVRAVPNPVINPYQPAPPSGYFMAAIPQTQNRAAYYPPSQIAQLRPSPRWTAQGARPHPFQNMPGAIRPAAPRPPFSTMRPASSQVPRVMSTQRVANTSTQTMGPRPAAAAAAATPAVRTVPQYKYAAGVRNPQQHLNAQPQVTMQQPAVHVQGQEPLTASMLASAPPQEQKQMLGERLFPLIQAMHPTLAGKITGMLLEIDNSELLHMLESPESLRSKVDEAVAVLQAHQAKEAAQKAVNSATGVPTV
CSC inhib – blocks cancer stem cells. inhibition, % at 7.5 µM. cancer stem cell-like cells viability, luminescence. 1.1% of 300,000 active;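 active = mean at 75% or more and at least half the replicates too; tested in HMLE shEcad cells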;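 note: 0% = median of negative and 100% = median of positive control wells; the first replicate is given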
eIF4H FP inh – inhibitors of RNA binding by human eIF4H; Q15056; eIF4H fluorescence polarization binding assay; inhibition, % at 35 µM; 0.94% of 290,000 active;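 active = 50% or more with normal probe brightness, or confirmed in later tests; about a fifth of its hits are not listed in these tables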;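 note: calls also rest on retests at 20 µM and on dose response follow-up; 0% = protein and probe with vehicle and 100% = probe without protein; strong numbers were not always called active; many hits fall short of the cut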
Rce1 inhib – blocks yeast Ras-converting enzyme; 0.27% of 290,000 active; calls only; yeast membranes, quenched prenylated peptide cleavage fluorescence; Q03530;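 active = fall in fluorescence gain of 50% or more versus controls, with final raw signal at or below 3038400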;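 note: plate controls were neutral control wells for no effect and wells lacking membranes for full effect; tested at 10 µM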
Target sequence (Q03530 whole entry, looked up): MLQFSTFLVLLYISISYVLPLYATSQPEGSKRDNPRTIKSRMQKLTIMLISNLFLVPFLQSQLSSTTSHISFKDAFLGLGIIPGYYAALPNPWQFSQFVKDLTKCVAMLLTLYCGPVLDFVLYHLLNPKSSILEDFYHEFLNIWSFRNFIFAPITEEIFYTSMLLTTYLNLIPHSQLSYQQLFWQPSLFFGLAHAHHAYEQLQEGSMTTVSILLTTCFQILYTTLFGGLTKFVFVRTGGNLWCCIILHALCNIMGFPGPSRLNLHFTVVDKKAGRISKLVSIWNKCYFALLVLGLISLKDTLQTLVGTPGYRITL
MT1-MMP act inh RFP – recorded beside MT1-MMP act inh, whose call it bears; RFP signal change, %; measured here: RFP expression control read;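 0 = vehicle wells; hits needed this value within 50% of zero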
An asterisk follows results filed as active; i = inactive; . = no result given; + = active, no number. This is a subset; count on the stated rates, not on these rows.

SMILES	Yeast UUG start	HIV Env fusion	MT1-MMP act inh	MT1-MMP act inh RFP	PABP polyA inh	CSC inhib	eIF4H FP inh	Rce1 inhib
Cc1ccc(C(=O)N2NC(c3ccc(F)cc3)C3C(=O)N(c4ccc(C)c(C)c4)C(=O)C32)cc1 (stereo not drawn)	-11.0	-3.9	.	.	5.0	-7.4	4.1	i
CC[C@H](C)[C@H](NC(N)=O)C(=O)NCCc1ccc(Cl)cc1	-5.7	22.4	-0.1	1.7	-5.4	9.3	-7.0	i
O=C(NCC(=O)N1CCOCC1)c1ccc(Br)cc1	-12.6	2.8	-2.2	0.1	-3.6	-3.4	-12.8	i
CC(C)CN(CC(C)C)CC(O)CN(c1ccccc1)S(=O)(=O)c1ccccc1[N+](=O)[O-] (stereo not drawn)	-1.2	65.4*	-7.9	-2.6	-0.9	2.7	0.6	i
COc1ccc(CC(=O)NCC2CCCN(Cc3ccc(F)cc3F)C2)cc1 (stereo not drawn)	-10.6	10.7	-3.9	-3.8	0.9	-10.9	-3.0	i
CCOC(=O)C1=C(CN2CCSCC2)NC(=O)NC1c1cc(C)ccc1C (stereo not drawn)	-20.4	.	-2.9	0.9	8.9	4.0	0.2	i
COc1ccc(N=C(N)SCc2ccccn2)cc1	.	-13.3	2.3	-1.8	-5.6	-7.7	-0.5	i
CC(C)=CC(=O)Nc1nnc(-c2ccc(F)cc2)s1	-15.1	.	1.2	6.9	-0.8	10.5	-1.8	i
CCNC(=O)CN(C1CCCCC1)S(=O)(=O)c1ccc(F)cc1	14.6	-41.6	2.7	6.8	-4.1	-10.9	2.1	i
CNC(=O)c1ccsc1NC(=O)CCS(=O)(=O)c1ccc(C)cc1	-10.4	-32.8	7.7	3.0	.	.	.	i
O=C(OCC(=O)N1CCN(c2ccc(F)cc2)CC1)c1cnc2ccccc2n1	8.8	-6.7	0.4	2.9	.	-1.4	.	.
CSCCC(NC(=O)C12CC3CC(CC(C3)C1)C2)C(=O)OCC(=O)c1ccccc1 (stereo not drawn)	.	-14.6	-4.0	-0.9	1.2	9.7	-1.3	i
CC(=O)Nc1c(C)ccc2nsnc12	.	.	1.1	4.7	0.6	1.3	-5.9	i
COCC(=O)Nc1ccc2c(c1)[C@@H]1C[C@H](CC(=O)OC)O[C@@H](CO)[C@@H]1O2	-8.2	-7.7	2.1	4.5	.	.	.	.
C=CCNC(=O)c1onc(CSc2ccc(OC)cc2)c1C(=O)O	-13.1	-3.6	4.4	5.6	8.8	-7.8	3.8	i
Cc1ccc2[nH]c3nc(N/N=C/c4cccc(O)c4)nnc3c2c1	-17.9	10.2	-3.4	-4.4	-0.8	80.8*	35.9	i
COC(=O)Cn1nc(-c2ccccc2)c2ccccc2c1=O	.	.	4.1	2.2	1.8	1.8	5.8	i
COc1ccccc1C(=O)NCCC(=O)Nc1cccnc1	-11.7	-23.1	0.8	2.3	2.8	-2.0	0.8	i
CCOC(=O)C1CCN(Cc2ccccc2C(F)(F)F)CC1	1.9	-29.9	-1.2	3.6	2.0	-17.0	-1.1	i
Cc1cccc(C(=O)N[C@H](C(=O)Nc2nnc(C3CC3)s2)C(C)C)c1	.	.	3.9	2.1	-2.0	-15.7	3.2	i
Cc1cc2occ(CC(=O)O)c2cc1C	-15.4	.	8.5	10.0	-2.9	-10.9	-4.3	i
O=C(c1ccc(F)cc1)N1CCC(C(=O)N2CCN(S(=O)(=O)c3cccc([N+](=O)[O-])c3)CC2)CC1	-9.8	.	4.8	-4.5	.	-12.9	.	i
COc1cccc(-c2cnc3c(NC=O)cc(-c4ccc(N5CCN(C)CC5)cc4)cn23)c1	-18.4	-25.3	-15.4	-2.2	.	.	.	.
CCOC(CNC(=O)c1nnc(Cc2cc(OC)c(OC)c(OC)c2)o1)OCC	.	-9.9	2.8	3.8	-3.8	-1.1	5.4	i
Cc1cccc(-c2nc(S(=O)(=O)c3ccccc3)c(N3CCOCC3)o2)c1	-14.0	-1.2	-0.2	-1.9	7.8	.	-1.7	i
CCOc1cc(CNc2ccc3cn[nH]c3c2)ccc1OC	-1.4	.	-2.1	-3.6	21.4	-3.9	12.1	i
CCSC1=NC(C)(C)C=C(/C=C/c2ccc(Cl)cc2Cl)N1	7.7	.	0.4	3.0	10.1	51.0	12.6	i
Cc1cc(C)c(S(=O)(=O)c2ccccc2Cl)c(=O)[nH]1	-16.4	-5.5	-5.4	0.2	-8.0	-0.9	-1.0	i
CN(C)/N=C/c1ccc(OS(=O)(=O)c2ccccc2)cc1	.	-27.3	0.1	-3.2	-5.2	-5.5	-6.8	i
COc1ccc(-n2cc(CNCCCn3ccnc3)c(-c3cccc(F)c3)n2)cc1	.	-3.7	3.1	-2.1	3.8	2.7	12.2	i

Reprinted at random: 2 records from the list.
SMILES	Yeast UUG start	HIV Env fusion	MT1-MMP act inh	MT1-MMP act inh RFP	PABP polyA inh	CSC inhib	eIF4H FP inh	Rce1 inhib
Cc1cccc(-c2nc(S(=O)(=O)c3ccccc3)c(N3CCOCC3)o2)c1	-14.0	-1.2	-0.2	-1.9	7.8	.	-1.7	i
CCOC(CNC(=O)c1nnc(Cc2cc(OC)c(OC)c(OC)c2)o1)OCC	.	-9.9	2.8	3.8	-3.8	-1.1	5.4	i

Additional entries.
SMILES	Yeast UUG start	HIV Env fusion	MT1-MMP act inh	MT1-MMP act inh RFP	PABP polyA inh	CSC inhib	eIF4H FP inh	Rce1 inhib
Cc1cccc(NC(=O)Nc2ccc(Cl)c(Cl)c2)n1	-7.9	-61.9	-5.7	-5.1	3.9	12.3	-1.2	i
CC(=O)c1c(C)c[nH]c1C	-19.0	.	1.4	7.5	3.3	-8.7	5.3	i
Cc1nc(NC(CC(C)C)C(=O)O)c2nc(C)oc2n1 (stereo not drawn)	-17.7	12.7	5.5	4.0	-3.2	-5.3	2.0	i
CC(=O)[C@@H]1[C@@H]2C(=O)N(C3CCCCC3)C(=O)[C@@H]2C2c3ccccc3C=CN21 (stereo partly drawn)	.	.	.	.	9.2	4.4	18.1	.
O=C(O)c1ccc(COc2ccccc2Cl)cc1	-18.7	-61.5	-2.5	6.4	6.5	8.1	-0.7	i
CCc1c(C(=O)N/N=C/c2sccc2C)nnn1-c1nonc1N	0.7	-44.5	3.0	-2.5	-1.0	.	-0.5	i
CCN1CCN(CC(=O)c2cc(OC)c(OC)c(OC)c2)CC1	-5.9	5.4	-0.3	3.8	-4.7	0.4	0.2	i
Cc1cc(/C=C2\SC(N)=NC2=O)c(C)n1-c1ccccc1	-6.4	.	-6.0	4.1	0.5	11.8	-3.4	i
CN1CCN(Cc2c(C(=O)N/N=C/c3cccc(Br)c3)nnn2-c2nonc2N)CC1	0.1	4.8	-2.3	4.1	-3.1	-7.1	-0.5	+
O=C(N[C@@H](CO)C(=O)NCc1ccccc1)c1ccc(C(F)(F)F)cc1	-8.3	-9.0	2.9	1.0	0.4	0.4	-5.3	i
C[C@@H]1CCCCO[C@@H](CN(C)S(=O)(=O)c2cn(C)cn2)[C@@H](C)CN([C@H](C)CO)C(=O)c2cc(NC(=O)Nc3ccc(C(F)(F)F)cc3)ccc2O1	-13.9	32.4	7.2	1.8	.	.	.	.
CNc1oc(-c2ccco2)nc1C#N	.	.	1.5	2.5	-8.1	-3.6	-13.4	i
O=C(/C=C/Nc1ccccc1)c1ccc(Cl)cc1Cl	-30.2	-218.0	0.9	-5.5	-8.9	20.6	3.1	i
O=C(CC(=O)N/N=C/c1ccc(Cl)cc1Cl)NCc1ccccc1	1.1	.	3.9	8.2	-6.4	-5.6	-7.8	i
COc1ccc2cc(C)c(SCC(=O)Nc3cc(C)on3)nc2c1	-21.7	.	-6.5	-1.7	4.1	.	-5.1	i
C(=C\c1cc(/C=C/c2ccccc2)ncn1)/c1ccccc1	-10.7	-38.3	2.4	-2.1	-1.5	-3.5	-10.2	i
O=C(CCc1ccccc1)NNC(=O)Nc1ccccc1	.	-58.1	8.8	4.7	3.6	-5.8	-6.1	i
Cc1ccc(C)n1NC(=O)c1ccco1	10.4	.	-6.0	8.6	1.5	-2.4	-9.9	i
CC(C)OC1(c2ccccc2)OC(=O)c2ccccc21 (stereo not drawn)	-3.5	7.7	1.3	-0.8	-5.0	-3.2	-6.4	i
O=C(Cc1c[nH]c2ccccc12)N1CCc2ccccc21	344.1*	.	2.5	5.5	3.5	11.0	-1.2	i
CCN1C(=O)[C@H]2[C@@H](c3ccc(-c4ccc5c(c4)OCO5)c(OC)c3)N[C@@](CC(C)C)(C(=O)OC)[C@H]2C1=O	-11.0	-23.4	-4.0	-3.6	.	3.8	.	i
COc1ccc(OC)c(S(=O)(=O)Nc2cccc3ccccc23)c1	-2.7	7.6	-4.9	4.4	.	-3.7	.	i
Cc1cccc(OCCC(=O)Nc2ccc(S(=O)(=O)N3CCCC3)cc2)c1	-3.3	.	3.4	-1.9	-2.6	-3.2	-5.2	i
O=C(NCc1ccc(Cl)nc1)c1ccc2nc([C@@H]3O[C@H](CO)[C@H](O)[C@H](O)[C@H]3O)[nH]c2c1	5.7	-4.6	11.8	-0.3	.	.	.	.
CN1C2C=C3C(C#N)=C(N)C(C#N)(C#N)[C@@H](c4ccsc4)[C@@H]3C1CC2 (stereo partly drawn)	.	.	.	.	63.0*	-20.7	65.6*	i
COc1cc(OC)cc(C(=O)NCC(=O)OCC(=O)/C=C2/N(C)c3ccccc3C2(C)C)c1	-6.1	1.7	4.5	3.5	0.1	.	-4.0	i
OCCNc1nc2ccc(Cl)cc2[nH]1	.	.	1.9	1.8	2.9	.	0.4	i
COc1ccccc1N1CCN(CC(O)COc2ccc3c(C)cc(=O)oc3c2)CC1 (stereo not drawn)	-6.2	12.9	6.1	2.3	-6.5	-3.3	5.0	i
Cc1onc(-c2ccccc2)c1C(=O)N1CCN(S(=O)(=O)c2ccc(OC(F)(F)F)cc2)CC1	-17.2	1.7	-0.9	-0.6	20.5	-0.3	-9.2	i
Cc1ccc(C(C)C)cc2c(C)ccc1-2	-13.0	14.2	2.4	3.5	.	.	.	.
Cc1ccc2c(C)[nH]c(=O)cc2c1	-16.9	.	-2.3	3.1	0.7	2.9	0.5	i
Clc1ccc(C[n+]2cc(-c3ccc(Cl)cc3)n3c2CCC3)cc1	.	-8.4	-5.9	-12.7	-2.1	7.7	-5.0	i
Cc1cccc(N2CCN(C(=O)C(Cc3ccccc3)n3cccc3)CC2)c1C (stereo not drawn)	-7.7	2.5	-9.2	-16.6	-7.0	30.2	1.8	i
Cc1ccc(NC(=S)N2CCN(c3ccccn3)CC2)cc1C	-10.6	-8.0	7.7	3.7	-9.5	-10.2	-4.7	i
CCn1c2ccccc2c2nnc(SCCN3CCOCC3)nc21	-26.4	-22.9	-0.2	1.8	11.3	-2.8	-1.3	i
COc1ccc(-c2cc(NC(C)=O)c3ncc(-c4ccc(F)cc4)n3c2)cc1OC	-1.6	18.0	0.1	-1.4	.	.	.	.
COc1cc(N/N=C(\C)c2ccc(O)c(C)c2)nc(-c2ccccc2)n1	.	-2.2	9.0	-5.3	5.7	109.8*	-3.1	i
O=C(CSc1nc2ccccc2o1)NCc1n[nH]c(=O)c2ccccc12	-21.2	-6.0	2.5	1.2	-9.3	5.0	-0.1	i
CCc1ccc(NC2=NC(C(=O)c3ccccc3)CC(=O)N2)cc1 (stereo not drawn)	-0.6	.	5.0	2.6	0.0	2.1	-5.6	i
CCCc1nc2ccc(C(=O)OC)cn2c1Cc1ccccc1C(F)(F)F	35.9	9.8	-7.9	-5.3	.	.	.	.
Cc1cccc2cn[nH]c12	.	7.6	5.1	3.3	4.3	.	16.6	i
